HTR1E agonist: activates the human 5-HT1E serotonin receptor. actives 0.69% (n = 65,000). activation, % at 6 µM. P28566. CHO 5-HT1E Ga15 NFAT-bla reporter, FRET; 0% DMSO wells, 100% control agonist wells. AID 574;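 active means activation above a set limit, the screen-wide mean activation plus 3 SD, cut at about 8.5% in these data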;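 further: 100% = positive control agonist at 1 µM giving full maximal response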
Target sequence (P28566 whole entry, looked up): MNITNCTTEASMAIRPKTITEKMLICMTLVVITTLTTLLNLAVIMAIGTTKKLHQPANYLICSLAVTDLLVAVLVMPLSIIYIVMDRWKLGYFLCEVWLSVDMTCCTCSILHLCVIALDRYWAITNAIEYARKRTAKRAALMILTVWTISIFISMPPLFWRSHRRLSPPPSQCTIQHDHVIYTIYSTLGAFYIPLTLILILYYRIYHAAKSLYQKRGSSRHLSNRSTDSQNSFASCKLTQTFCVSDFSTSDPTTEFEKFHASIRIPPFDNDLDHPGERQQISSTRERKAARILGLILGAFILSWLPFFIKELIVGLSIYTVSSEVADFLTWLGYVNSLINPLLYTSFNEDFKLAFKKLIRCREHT
5HT1a antag: 5-HT1a (human) receptor antagonism. CHO 5-HT1a Ga15 NFAT-bla reporter, antagonist mode. inhibition, % at 10 µM. P08908. AID 612. actives 0.68% (n = 62,000);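 active means inhibition above the mean of all tested compounds plus 3 SD, cut at about 43% in these data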;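 further: receptor stimulated by 5-CT agonist at 100 nM near EC80; beta-lactamase reporter measured by ratiometric fluorescence of a cleavable substrate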
S1P1 ag-PAM: S1P1 (human) agonism or agonism potentiation. actives 0.57% (n = 56,000). P21453. activation, % at 9.5 µM. AID 449. S1P1 CRE-bla cells, forskolin, beta-lactamase FRET, potentiator mode; S1P1 agonist co-added at EC20, 2 nM; 100% = saturating reference agonist, 0% = basal;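 active means activation above a cutoff set at the mean activation of all tested compounds plus 3 SD, cut at about 54% in these data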;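 further: forskolin at 4 µM as EC80 and the EC20 agonist is SEW2871; 100% = SEW2871 at its EC100 plus forskolin at EC80; some compounds past the cut are filed as inactive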
5HT1E antag: blocks the human 5-HT1E serotonin receptor; actives 0.99% (n = 65,000); inhibition, % at 6 µM; AID 571; CHO 5-HT1E Ga15 NFAT-bla reporter, FRET, antagonist;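 active means inhibition above a set limit, the mean inhibition across every tested compound plus 3 SD, cut at about 29% in these data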;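 further: signal is the 460 over 535 nm emission ratio of beta-lactamase substrate; 0% = agonist plus DMSO wells and 100% = wells without agonist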
S1P3 ag: agonists of human S1P3 receptor; activation, % at 4.5 µM; actives 0.1% (n = 60,000); Q99500; S1P3 NFAT-BLA reporter cells, agonism, FRET ratio; relative to 1 µM S1P, basal subtracted;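 active means activation above the screen-wide mean plus 3 SD, cut at about 4.5% in these data, passing the limit was not always enough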; further: some compounds called inactive have numbers as strong as hits
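Measure – % activation relative to 1 µM S1P (100%), per plate · System – stable CHO line with human S1P3, Gα16, NFAT-BLA reporter · Timing – cells plated overnight, compound 4 h 37 °C, substrate 2 h RT · Technique – fluorescent BLA substrate, ex 405 nm, em 460/535 nm ratio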
An asterisk follows results filed as active; x = no result given. These rows are one share of the data; the hit share may differ from the screen's.

| HTR1E agonist | 5HT1a antag | S1P1 ag-PAM | 5HT1E antag | S1P3 ag | Compound |
| --- | --- | --- | --- | --- | --- |
| -0.9 | 2 | 1 | 2 | -0.7 | COc1ccc(C(=O)c2ccc(OC)cc2O)c(O)c1 |
| 0.4 | 4 | -8 | 6 | -0.8 | Nc1cccc(S(=O)(=O)c2cccc(N)c2)c1 |
| 1.1 | x | -2 | 4 | -1.4 | O=C(NCC1CCCCN1)c1cc(OCC(F)(F)F)ccc1OCC(F)(F)F (stereo not drawn) |
| -0.8 | x | -1 | 2 | -3.8 | Cc1ccccc1C(OCCN(C)C)c1ccccc1 (stereo not drawn) |
| 2.1 | x | -2 | -10 | -4.4 | CC(=O)Oc1cc(C(C)C)c(OCCN(C)C)cc1C |
| -0.4 | x | 1 | 6 | -4.4 | CNCCC(Oc1ccc(C(F)(F)F)cc1)c1ccccc1 (stereo not drawn) |
| -0.1 | x | -2 | -14 | -2.8 | CC(C)NCC(O)COc1ccc(CC(N)=O)cc1 (stereo not drawn) |
| 0.1 | x | -9 | 3 | -4.1 | COCCCC/C(=N\OCCN)c1ccc(C(F)(F)F)cc1 |
| 0.4 | x | 9 | -1 | -3.2 | Cc1nc2sccn2c(=O)c1CCN1CCC(=C(c2ccc(F)cc2)c2ccc(F)cc2)CC1 |
| -0.2 | x | 19 | 3 | -4.2 | CC(C)[N+]1(C)[C@@H]2CC[C@H]1CC(OC(=O)C(CO)c1ccccc1)C2 (stereo partly drawn) |
| -0.6 | x | -2 | -4 | -4.4 | Cc1cn([C@H]2C=C[C@@H](CO)O2)c(=O)[nH]c1=O |
| -0.5 | 24 | 17 | 3 | -1.5 | O=S(=O)(Nc1nnc(-c2ccccc2)s1)c1ccc(Cl)cc1 |
| -0.7 | x | -6 | 11 | -1.5 | CC(=O)OCC(=O)[C@@]1(O)CC[C@H]2[C@@H]3CCC4=CC(=O)C=C[C@]4(C)[C@H]3[C@@H](O)C[C@@]21C |
| 0.8 | x | 11 | 6 | -1.0 | CC(=O)O[C@]1(C(C)=O)CC[C@H]2[C@@H]3C=C(C)C4=CC(=O)CC[C@]4(C)[C@H]3CC[C@@]21C |
| -0.1 | x | -10 | 21 | -3.4 | COCCOC(=O)C1=C(C)NC(C)=C(C(=O)OC(C)C)C1c1cccc([N+](=O)[O-])c1 (stereo not drawn) |
| 0.0 | x | -26 | -4 | -2.3 | C(=C\c1ccccc1)/CN1CCN(C(c2ccccc2)c2ccccc2)CC1 |
| -0.4 | x | 12 | 14 | -6.3 | C[C@]12CC[C@@H]3c4ccc(O)cc4CC[C@H]3[C@@H]1CCC2=O |
| -0.3 | x | -16 | -12 | -2.8 | Cn1nnnc1SCC1=C(C(=O)O)N2C(=O)[C@@H](NC(=O)[C@H](O)c3ccccc3)[C@H]2SC1 |
| 0.0 | x | -1 | 10 | -4.7 | CC(=O)[C@H]1CC[C@H]2[C@@H]3CCC4=CC(=O)CC[C@]4(C)[C@H]3CC[C@]12C |
| -0.3 | x | 6 | -3 | -4.2 | COc1cc(NS(=O)(=O)c2ccc(N)cc2)nc(OC)n1 |
| 0.4 | x | 13 | -3 | -2.5 | CN1CCN(CCCN2c3ccccc3Sc3ccc(Cl)cc32)CC1 |
| 5.3 | x | -14 | -3 | -0.2 | OC(CCN1CCCCC1)(c1ccccc1)C1CCCCC1 (stereo not drawn) |

Only S1P1 ag-PAM, for some of the entries so far:
molecule	S1P1 ag-PAM
CC(=O)OCC(=O)[C@@]1(O)CC[C@H]2[C@@H]3CCC4=CC(=O)C=C[C@]4(C)[C@H]3[C@@H](O)C[C@@]21C	-6
C[C@]12CC[C@@H]3c4ccc(O)cc4CC[C@H]3[C@@H]1CCC2=O	12

Not a retest: an excerpt of the list.
| HTR1E agonist | 5HT1a antag | S1P1 ag-PAM | 5HT1E antag | S1P3 ag | Compound |
| --- | --- | --- | --- | --- | --- |
| -0.9 | 2 | 1 | 2 | -0.7 | COc1ccc(C(=O)c2ccc(OC)cc2O)c(O)c1 |
| 0.4 | 4 | -8 | 6 | -0.8 | Nc1cccc(S(=O)(=O)c2cccc(N)c2)c1 |
| 1.1 | x | -2 | 4 | -1.4 | O=C(NCC1CCCCN1)c1cc(OCC(F)(F)F)ccc1OCC(F)(F)F (stereo not drawn) |
| -0.8 | x | -1 | 2 | -3.8 | Cc1ccccc1C(OCCN(C)C)c1ccccc1 (stereo not drawn) |
| 2.1 | x | -2 | -10 | -4.4 | CC(=O)Oc1cc(C(C)C)c(OCCN(C)C)cc1C |
| -0.4 | x | 1 | 6 | -4.4 | CNCCC(Oc1ccc(C(F)(F)F)cc1)c1ccccc1 (stereo not drawn) |
| -0.1 | x | -2 | -14 | -2.8 | CC(C)NCC(O)COc1ccc(CC(N)=O)cc1 (stereo not drawn) |
| 0.1 | x | -9 | 3 | -4.1 | COCCCC/C(=N\OCCN)c1ccc(C(F)(F)F)cc1 |
| 0.4 | x | 9 | -1 | -3.2 | Cc1nc2sccn2c(=O)c1CCN1CCC(=C(c2ccc(F)cc2)c2ccc(F)cc2)CC1 |
| -0.2 | x | 19 | 3 | -4.2 | CC(C)[N+]1(C)[C@@H]2CC[C@H]1CC(OC(=O)C(CO)c1ccccc1)C2 (stereo partly drawn) |
| -0.6 | x | -2 | -4 | -4.4 | Cc1cn([C@H]2C=C[C@@H](CO)O2)c(=O)[nH]c1=O |
| -0.5 | 24 | 17 | 3 | -1.5 | O=S(=O)(Nc1nnc(-c2ccccc2)s1)c1ccc(Cl)cc1 |

Screening results (PubChem)
